Assay outcomes from PubChem.
AmpC nodet inh: inhibitors of E. coli AmpC beta-lactamase without detergent; Potency, µM (highest dose often 28.7 µM), for inactives: at the top dose activity change, negative = inhibition; actives 1.8% (n = 71,000); AmpC nitrocefin hydrolysis, absorbance 480 nm, no detergent; potencies from a single point are estimates; P00811; AID 585; active = falling curve, for most hits resting on a single point; inconclusive = weak or doubtful change; inactive = flat or rising curve; also: % of control where 0% means no effect; about half of the hits show no inhibition at the top dose; a quarter of the inactives give rising signals
Target sequence (P00811 whole entry, looked up): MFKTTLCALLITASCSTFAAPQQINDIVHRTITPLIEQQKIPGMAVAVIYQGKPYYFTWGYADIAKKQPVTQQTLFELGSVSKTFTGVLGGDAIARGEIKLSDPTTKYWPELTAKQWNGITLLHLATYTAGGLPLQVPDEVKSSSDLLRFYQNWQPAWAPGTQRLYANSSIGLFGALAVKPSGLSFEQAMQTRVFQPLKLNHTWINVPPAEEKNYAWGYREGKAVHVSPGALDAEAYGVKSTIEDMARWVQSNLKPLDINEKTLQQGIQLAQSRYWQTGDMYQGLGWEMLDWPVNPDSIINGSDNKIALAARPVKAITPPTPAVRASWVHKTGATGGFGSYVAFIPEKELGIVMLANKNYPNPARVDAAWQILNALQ
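AmpC in 20 mM phosphate buffer pH 7.0 was preincubated 15 min at room temperature with compounds. Nitrocefin (800 uM stock) was then added and hydrolysis followed at 480 nm every 20 s for 4 min.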
The depositor's hits bear a star; ? = inconclusive; & = joins results of further samples; [ ] = dose if it differs, or a comment. Potency is read from the fitted curve at half-maximal effect. The list is partial (hit frequency here may not be typical).

no.	compound	AmpC nodet inh
1	CCn1c(SCC(=O)N2CCCCC2)nnc1-c1ccc(S(=O)(=O)N2CCN(C)CC2)cc1	75%
2	COc1ccc(N2C3=[N+](CCCC3)CC2(C)O)cc1 (stereo not drawn)	-6%
3	CCOC(=O)C1Cn2c(nc3c(c2=O)C2(CCCC2)Cc2ccccc2-3)S1 (stereo not drawn)	71%
4	COC(=O)C1=C(N)Oc2cc(C)n(Cc3cccnc3)c(=O)c2C1c1cccc(OC)c1OC (stereo not drawn)	39%
5	CCN(CCNC(=O)C1CCN(S(=O)(=O)c2cccc3cccnc23)CC1)c1ccccc1	63%
6	COC(=O)c1cccc2c1-c1ccccc1/C2=N/O	-22%
7	O=C(NCc1ccccc1)N1CCN(c2ccccc2F)CC1	-14%
8	CC1CCCCN1CCn1c(=S)[nH]c2ncccc2c1=O (stereo not drawn)	13%
9	CCC1C(C#N)=C(SC)NC2=C1C(=O)CC(C)(C)C2 (stereo not drawn)	-4%
10	COc1cccc(C(=O)NC2CCN(C(=O)N3CCCCC3)CC2)c1	10%
11	N[C@@H](CO)C(=O)O	18%&27%&1%
12	O=C(Nc1cccnc1)c1scc2c1OCCO2	-10%
13	Cc1cc(NC(=O)CSC2=NCCS2)no1	-16%
14	O=C(Cn1c(CN2CCCCC2)nc2ccccc2c1=O)NC1CCCCC1	11%
15	COc1cccc2[nH]c3c(=O)n(CCN(C)C)cnc3c12	-7%
16	COc1ccc(N2CCN(C(=O)Cc3ccc(-n4c(=O)[nH]c5ccccc5c4=O)cc3)CC2)cc1	75%
17	CCOC(=O)N1CCC(NC(=O)CSCc2cnn(-c3ccccc3)c2-n2cccc2)CC1	116%
18	Cc1cc(C)nc(Nc2n[nH]c(-c3ccccc3Br)n2)n1	15%
19	c1ccc(CNC2=NCCCCC2)cc1	-4%
20	COc1ccc(Nc2nc(N3CCCCC3)nc(N3CCCCC3)n2)c(OC)c1	-4%
21	CCn1c(=NC(=O)CSC(C)=O)sc2cc(F)ccc21	22%
22	CCC(C)Sc1nc2c(cnn2-c2ccc(C)c(C)c2)c(=O)[nH]1 (stereo not drawn)	0%
23	CC(=O)Nc1ccc(NC2(C)C(=O)c3ccccc3C2=O)cc1	-7%
24	Clc1ccc(Cn2ncc3c(NCc4ccco4)ncnc32)c(Cl)c1	111%
25	O=C(O)c1n[nH]c2c1CCCC2	-6%
26	CC(C)CCN1C(=O)c2ccc(C(=O)NCc3ccco3)cc2C1=O	7%
27	COc1ccc(CNC(=O)Cc2ccc(OC)c(S(=O)(=O)N3CCOCC3)c2)cc1	10%
28	COc1ccc(NC(=O)c2cnc3sccn3c2=O)cc1	6%
29	N#CC(C(=O)O)=C1CCCC1	0%
30	Cc1ccnc(N2CCC(C(=O)Nc3ccc4c(c3)OCO4)CC2)n1	-4%
31	c1ccc(CCn2nnnc2C(c2cccs2)N2CCN(Cc3ccc4c(c3)OCO4)CC2)cc1 (stereo not drawn)	38%
32	N#Cc1ccc2ccn(CC(=O)NC3CCCCC3)c2c1	-7%
33	COc1ccc(C(=O)n2cnc(N)n2)cc1	-12%
34	N#Cc1c(NC(=O)COC(=O)C2CC3C=CC2C3)oc(-c2ccccc2)c1-c1ccccc1 (stereo not drawn)	10µM*
35	CCn1c(SCc2nc3ccccc3[nH]2)nnc1-c1ccccc1OC	1%
36	Cc1cc(N2CCCC2=O)cc(C)c1S(N)(=O)=O	-6%
37	CC(=O)OCC1=C(C(=O)O)N2C(=O)[C@@H](NC(=O)CSc3ccncc3)[C@@H]2SC1	9%[12.8 µM]
38	Cc1noc(C)c1S(=O)(=O)N1CCCC(C(=O)N2CCC(C)CC2)C1 (stereo not drawn)	56%
39	COc1ccc(-c2cc3nc(C)c(CCC(=O)N4CCCCC4)c(C)n3n2)c(OC)c1	138%
40	CC(C)COC(=O)N1CCCC1C(=O)Nc1nccs1 (stereo not drawn)	14%
41	FC(F)(F)C(F)(F)C(F)(F)c1nnc2ccc(N3CCOCC3)nn12	29%
42	Nc1cc(C(=O)O)ccc1N1CCCCCC1	-11%
43	O=C(CSc1nnc(-c2ccccc2)n1-c1ccccc1)NCc1ccco1	18%
44	O=C(c1n[nH]c(=O)c2ccccc12)N1CCN(c2ccc(F)cc2)CC1	9%
45	CCOC(=O)C1CCN(C(=O)COC(=O)CCOc2ccc(C)cc2)CC1	75%
46	Brc1ccc2nc(CSc3ncn[nH]3)cn2c1	-11%
47	OCCn1c(-c2ccc3c(c2)OCO3)csc1=Nc1ccccc1	36%
48	O=S1(=O)N=C(Nc2ccc(O)c(CN3CCCCC3)c2)c2ccccc21	9%
49	CCCCCC[C@H]1C(=O)O[C@@H](C)[C@H](NC(=O)c2cccc(NC=O)c2O)C(=O)O[C@@H](C)[C@@H]1OC(=O)CC(C)C	4%
50	COc1ccc(-c2noc(CSc3nc(N)c(-c4ccccc4)c(=O)[nH]3)n2)cc1OC	56%
51	CCS(=O)(=O)Nc1cccc(C(=C2CCCCC2)c2cnc[nH]2)c1	27%
52	CC(C)Oc1ccc(NC(N)=O)cc1	20%
53	O=C(CSc1nc(-c2ccco2)cc(C(F)(F)F)n1)NCCCn1ccnc1	25%
54	CC1(C)NC(=O)N(CC(O)CN2CCCCC2)C1=O (stereo not drawn)	20%
55	Nn1c(SC/C=C/c2ccccc2)nnc1-c1cccnc1	2%
56	Cc1sc2ncn3c(C)nnc3c2c1C	4%
57	CCC[C@@H]1C[C@@]1(CCC)C(NS(=O)(=O)c1cccc2cccnc12)c1ccc(Cl)cc1 (stereo partly drawn)	-21%
58	Cc1noc(C(=O)Nc2ccc3c(c2)OCO3)c1Cl	-10%
59	O=C(Nc1ccc2c(c1)OCO2)c1cc(C2CC2)on1	-7%
60	Cc1ccc(-c2cc(C(F)F)nc(NCc3cccnc3)n2)cc1	116%

Next compounds follow:
no.	compound	AmpC nodet inh
61	COc1ccccc1NC(=O)CN1C(=O)CCS(=O)(=O)c2ccccc21	-16%
62	COc1ccc(C2N3CC4(C)CN2CC(C)(C3)C4=O)cc1OC (stereo not drawn)	9%
63	C[C@H](CN(C)C)C(O)(c1ccccc1)c1ccccc1	-2%[5.75 µM]
64	O=C(C1CCCO1)N1CCC(O)(c2ccccc2)CC1 (stereo not drawn)	-2%
65	CCc1ccc(NC(=O)c2cccnc2)cc1	0%
66	COC(=O)c1cccc(NC(=O)c2nn(C)c(=O)c3ccccc23)c1	121%
67	O=S(=O)(/N=C/N1CCOCC1)c1ccc(Cl)cc1	-9%
68	c1ccc(CSc2ncccn2)cc1	2%
69	COc1ccc(Cl)cc1NC(=O)Cn1cccc1	0%
70	CC1=CC(=O)C2=C(C)CC[C@@H]3[C@H](OC(=O)[C@H]3C)[C@H]12	8%
71	Nc1cc(Cl)ccc1Oc1ccccc1	-4%
72	O=C(O)Cn1c(P(=O)(O)c2ccccc2)nc2ccccc21	-11%
73	COC(=O)C1=C(N)Oc2cc(C)n(Cc3ccncc3)c(=O)c2C1c1cccnc1 (stereo not drawn)	-12%
74	N[C@@H]1C[C@H]1c1ccccc1	-18%
75	CCOC(=O)c1ccc2c(c1)nc(SCc1cn3ccsc3n1)n2CC	59%
76	COCCNC(=O)CSCc1nc(-c2ccc(SC)cc2)oc1C	81%
77	COCC(=O)N1CCC2(CCCN(c3ccncc3)C2)CC1	4%
78	Cc1ccccc1NC(=O)C1CCCN(S(=O)(=O)c2cnc[nH]2)C1 (stereo not drawn)	-6%
79	Cc1cc(NC(=O)c2ccc3c(c2)C(=O)N(C2CCCCC2)C3=O)no1	0%
80	Cc1nc(Nc2ccccc2)c2nc(-c3ccccc3)n(CCN3CCOCC3)c2n1	155%
81	O=P(O)(O)CCP(=O)(c1ccccc1)c1ccccc1	-12%
82	CCOC(=O)c1ccc(N2Cc3cc(C)c(C)cc3C2)cc1O	-1%
83	COc1ccc(OC)c(-c2cc(C(=O)Nc3c(C)nn(Cc4ccccc4C)c3C)no2)c1	73%
84	O=C1c2ccccc2C(O)(Cc2ccccc2)N1Cc1ccco1 (stereo not drawn)	-4%
85	O=C1c2ccccc2N2C(=O)c3ccccc3C2N1Cc1ccco1 (stereo not drawn)	-4%
86	CC(C)N(C(=O)CSc1nnc(-c2cc3ccccc3cc2O)n1Cc1ccco1)C(C)C	16%
87	COC(=O)c1ccc(Nc2cc(C)nc3nc(C)nn23)cc1	6%
88	CCOC(=O)C1CN(C)CCC1=O (stereo not drawn)	-5%
89	O=c1c(-c2ccc(F)cc2)nc2cnc(Nc3ccccc3)nc2n1Cc1cccs1	1%
90	COC(=O)Nc1c(C(=O)OC)cc(OC)c(OC)c1OC	0%

The last five compounds of the section above lead into the next:
no.	compound	AmpC nodet inh
86	CC(C)N(C(=O)CSc1nnc(-c2cc3ccccc3cc2O)n1Cc1ccco1)C(C)C	16%
87	COC(=O)c1ccc(Nc2cc(C)nc3nc(C)nn23)cc1	6%
88	CCOC(=O)C1CN(C)CCC1=O (stereo not drawn)	-5%
89	O=c1c(-c2ccc(F)cc2)nc2cnc(Nc3ccccc3)nc2n1Cc1cccs1	1%
90	COC(=O)Nc1c(C(=O)OC)cc(OC)c(OC)c1OC	0%
91	COC(=O)CSc1nc(NC(C)C)nc(N2CCOCC2)n1	15%
92	COc1ccc(C(=O)COC(=O)CN2C(=O)NC(C)(C)C2=O)cc1OC	-21%
93	O=C(CSc1nc(-c2ccccc2)cc(=O)[nH]1)N1CCOCC1	0%
94	Cn1c(SCC(=O)N2CCCCC2)nnc1-c1ccc(S(=O)(=O)N2CCOCC2)cc1	31%
95	CNc1nc(OC)nc(N2CCOCC2)n1	12%
96	COc1ccc(NC(=O)N2CC[C@@]3(CCCN(C(=O)c4cccn4C)C3)C2)cc1	21%
97	CCn1nccc1C(=O)Nc1cc(Cl)ccc1Cl	3%
98	Cc1ccc(S(=O)(=O)CCC(=O)OCC(=O)Nc2cc(C)on2)cc1	-1%
99	CCCCC[C@H](O)CCCC(=O)O	1%
100	CC(=O)c1cc(-c2ccccc2)n(CC(=O)N2CCC(N3CCCCC3)CC2)c1C	8%
101	Cc1cccc(-n2c(N)cc(=O)[nH]c2=S)c1C	0%
102	CCCCN(CC)S(=O)(=O)c1cccc2cccnc12	10%
103	O=C(c1cc(C2CC2)on1)N1CCN(C(c2ccccc2)c2ccccc2)CC1	-3%
104	NC1=NC(=O)CC(C(=O)NCCc2ccccc2)S1 (stereo not drawn)	3%
105	COC(=O)CC1C(=O)NCCN1C(=O)NC1CCCCC1 (stereo not drawn)	-3%
106	Cc1cc(NCCCN)nc(-c2ccccc2O)n1	-4%
107	CC(C)(C)OC(=O)N1Cc2ccccc2C[C@H]1C(=O)O	-2%
108	COc1cccc(C(=O)Nc2c3c(nn2-c2ccccc2C)CS(=O)C3)c1OC (stereo not drawn)	30%
109	O=C(CN1CCC(NC(=O)c2ccc(F)cc2)CC1)NCc1ccccc1F	5%
110	Cc1cc(C)c(C(=O)CC2(O)C(=O)Nc3ccccc32)cc1C (stereo not drawn)	17%
111	C=C(C)C#N	-5%
112	c1ccc(-c2cnc(-c3ccc(-c4ncc(-c5ccccc5)o4)cc3)o2)cc1	0%[5.75 µM]
113	CC1CCCCN1C(=O)CSc1nc2ccsc2c(=O)n1Cc1ccccn1 (stereo not drawn)	36%
114	Cc1cc(O)c2c(-c3ccccc3)cc(=O)oc2c1	?
115	O=C1c2ccccc2C2(c3ccc(Cl)cc3)NCCN12 (stereo not drawn)	57%
116	C[C@]12C=CC(=O)C=C1CC[C@@H]1[C@H]3C[C@@H](O)[C@](O)(C(=O)CO)[C@@]3(C)C[C@H](O)[C@]12F	6%[12.8 µM]
117	CCCc1cc2c(cc1NS(=O)(=O)c1ccc(CCNC(C)=O)cc1)OCO2	46%
118	Cc1ccc(C(=O)N2CCN(c3ccc(NC(=O)c4cccnc4)cc3)CC2)cc1	75%
119	CCn1c(SCC(=O)OCc2ccccc2)nc2c1c(=O)n(C)c(=O)n2C	21%
120	COc1ccccc1CNC(=O)CCS(=O)(=O)c1cccs1	5%

Pulled by structure from above, six records:
no.	compound	AmpC nodet inh
94	Cn1c(SCC(=O)N2CCCCC2)nnc1-c1ccc(S(=O)(=O)N2CCOCC2)cc1	31%
106	Cc1cc(NCCCN)nc(-c2ccccc2O)n1	-4%
105	COC(=O)CC1C(=O)NCCN1C(=O)NC1CCCCC1 (stereo not drawn)	-3%
92	COc1ccc(C(=O)COC(=O)CN2C(=O)NC(C)(C)C2=O)cc1OC	-21%
98	Cc1ccc(S(=O)(=O)CCC(=O)OCC(=O)Nc2cc(C)on2)cc1	-1%
100	CC(=O)c1cc(-c2ccccc2)n(CC(=O)N2CCC(N3CCCCC3)CC2)c1C	8%

Ordered by molar mass (largest number first): 3 of the compounds above
no.	compound	AmpC nodet inh
116	C[C@]12C=CC(=O)C=C1CC[C@@H]1[C@H]3C[C@@H](O)[C@](O)(C(=O)CO)[C@@]3(C)C[C@H](O)[C@]12F	6%[12.8 µM]
93	O=C(CSc1nc(-c2ccccc2)cc(=O)[nH]1)N1CCOCC1	0%
111	C=C(C)C#N	-5%

More structures follow:
no.	compound	AmpC nodet inh
121	Cn1c(=O)c(-c2ccccc2)nn2c3ccccc3nc12	38%
122	O=C(Nc1nccs1)c1cnccn1	10%
123	CCOC(=O)N1CCN(C(=O)c2ccc3c(c2)ncn3C2CCCC2)CC1	31%
124	CCOC(=O)CSc1nnc([C@@H](NC(=O)OC(C)(C)C)C(C)C)o1	3%
125	Cc1ccccc1C=O	-3%
126	O=C(Nc1cccc(Cl)c1)OCc1ccccn1	-5%
127	Cc1ccnc(N)c1	6%
128	CCOC(=O)C1CCN(c2c(NCCCN(CC)c3ccccc3)c(=O)c2=O)CC1	26%
129	O=C(c1cnccn1)N1CCC[C@@]2(CCN(c3ccccn3)C2)C1	9%
130	CC(=O)O[C@H]1C[C@@]2(C)[C@H](C[C@@H](O)[C@H]3[C@@]4(C)CC[C@@H](O)[C@@H](C)[C@H]4CC[C@@]32C)C1=C(CCC=C(C)C)C(=O)O	36%[12.8 µM]
131	Cc1cc(C)nc(SCC(=O)Nc2ncc3c(n2)CCCC3=O)n1	0%
